High-throughput results: PubChem, National Center for Advancing Translational Sciences (NCATS)
gsp ag = qHTS for Agonist of gsp, the Etiologic Mutation Responsible for Fibrous Dysplasia/McCune-Albright Syndrome: qHTS | 340,000 compounds, 0.13% hits | gsp mutant cells, cAMP HTRF, 30 min; control for the full effect not named in the record | AID 624287, 2012 | Potency, µM (titrated, usually from 76.9 µM), inactives show at the highest dose activation (cAMP increase), usual class: activators; active = well fitted activation curve with a large enough effect; inconclusive = small, poorly fitted or top-dose-only effect, or another doubt; inactive = no such curve, though single readings can be large or run the other way; cell line not stated here;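 further: phosphodiesterase inhibitor Ro 20-1724 added with compounds to block cAMP breakdown; potency means the concentration at half of the fitted maximal effect; nearly all actives have a fitted effect of over 60% in size; about a fifth of the inactives were tested at one dose only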
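Cells stably selected in G418 were plated at 2000/well, grown 16-24 hr, then given compounds in DMSO with the PDE inhibitor […] (300 uM solution added) for 30 min at 37C; cAMP was read by HTRF.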
Sfp inh = qHTS Assay for Inhibitors of Bacillus subtilis Sfp phosphopantetheinyl transferase (PPTase); 310,000 compounds, 3.5% hits; Potency, µM, for the others: max response, negative = inhibition, hits mostly inhibitors; Biochemical Sfp PPTase activity, qHTS; active means well fitted inhibition curve with a large enough effect; inconclusive means small, poorly fitted or top-dose-only effect, or another doubt; inactive means no such curve, though single readings can be large or run the other way;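 further: the enzyme is Sfp with the accession as filed and its product quenches rhodamine fluorescence; potency means the concentration at half of the fitted maximal effect; 0% = enzyme reaction without inhibitor and -100% = no enzyme wells; top concentration of the series not given in the record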
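After 15 min at room temperature with compound, 15 nM Sfp received 5 uM rhodamine-CoA plus 12.5 uM BHQ-2-ybbR (50 mM Hepes pH 7.6, 10 mM MgCl2). Rate came from the fluorescence difference over 30 min, ex 525/em 598 nm.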
Menin MLL FP FL = qHTS Assay for Inhibitors Targeting the Menin-MLL Interaction in MLL Related Leukemias: Competition With Fluorescein Labeled MLL-derived Peptide; Fluorescence polarization, fluorescein-MLL peptide displacement from menin; FP activity change, % at 61.4 µM; 290,000 tested, under 10 active; AID 1766, 2009; inconclusive = falling polarisation curve, or a change in total fluorescence; inactive = total fluorescence flat and polarisation flat or rising; no compound was filed as active; the % refers to the polarisation; negative = inhibition;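 further: % of control where 0% means no effect; inhibitors lower the polarisation; unlabelled MLL peptide was the positive control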
ClpP mod = qHTS Assay for Activators of ClpP. AID 651965, 2013. purified B. subtilis ClpP, FRET peptide cleavage, 20 min. 340,000 compounds, 1.9% hits. Potency, µM (highest dose often 57.5 µM), for inactives: at the highest dose activity change, negative = active. ATP-dependent Clp protease proteolytic subunit (Bacillus subtilis (strain 168)), P80244; active = well fitted falling curve with a large enough effect; inconclusive = small, poorly fitted or top-dose-only effect; inactive = no such curve, though single readings can be large or run the other way; further: potency means the concentration at half of the fitted maximal effect; the source files actives as falling curves though it sought activators and does not explain the sign; nearly all actives have a fitted effect of over 65% in size; many hits overshoot -100%
Target sequence (P80244 whole entry, looked up): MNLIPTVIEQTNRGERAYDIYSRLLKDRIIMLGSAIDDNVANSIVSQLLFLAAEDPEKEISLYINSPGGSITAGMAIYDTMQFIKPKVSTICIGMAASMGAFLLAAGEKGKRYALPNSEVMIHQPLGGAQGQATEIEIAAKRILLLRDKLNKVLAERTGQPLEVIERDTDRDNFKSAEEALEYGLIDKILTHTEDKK
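Buffer: 100 mM Tris/HCl pH8, 100 mM KCl, 0.05% low protease BSA, 2.5% glycerol, 0.01% Tween-20. ClpP 10 microg/mL final; 20 min RT; delta FRET normalized to ADEP and DMSO controls.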
TRPV1 PAM = HTS Assay for Compounds that Act as Potentiators of the Vanilloid Receptor 1; Transient receptor potential cation channel subfamily V member 1 (Homo sapiens), Q8NER1; potentiation, % at 8.33 µM; TRPV1-expressing cells, Fluo-8 calcium influx, capsaicin EC20 potentiation; host cell line not named in the record; control for the full effect not named in the record; AID 540277, 2011; 320,000 compounds, 0.02% hits; active means potentiation above 80%; inconclusive means 30% to 80%; inactive means below 30%; further: 0% is about no effect
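Fluo-8 calcium influx in TRPV1-expressing cells, kinetic read (ex 480/em 520 nm). Compound added and read 3 min for agonist activity, followed by capsaicin at EC20 final and 2 min further read for enhancement.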
TRPML1 inh = qHTS for Inhibitors of the Human Mucolipin Transient Receptor Potential 1 (TRPML1); Mucolipin-1 (Homo sapiens), Q9GZU1; activity change, negative = inhibition, % (concentration not given with the values); AID 624415, 2012; TRPML1-inducible cells, Ca2+ dye fluorescence, FDSS; active compounds read low; inhibition of EC80 agonist-evoked calcium signal; 390,000 compounds, 0.02% hits; in the data active means activity change below about -50%; inconclusive means about -30% to -50%; inactive means above about -30%;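 further: stimulus is agonist 54-4 at its EC80 concentration; on the % scale 0 is the no-effect control and ±100 the full control effect; the text of the record puts the active cut at -80%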
Target sequence (Q9GZU1 whole entry, looked up): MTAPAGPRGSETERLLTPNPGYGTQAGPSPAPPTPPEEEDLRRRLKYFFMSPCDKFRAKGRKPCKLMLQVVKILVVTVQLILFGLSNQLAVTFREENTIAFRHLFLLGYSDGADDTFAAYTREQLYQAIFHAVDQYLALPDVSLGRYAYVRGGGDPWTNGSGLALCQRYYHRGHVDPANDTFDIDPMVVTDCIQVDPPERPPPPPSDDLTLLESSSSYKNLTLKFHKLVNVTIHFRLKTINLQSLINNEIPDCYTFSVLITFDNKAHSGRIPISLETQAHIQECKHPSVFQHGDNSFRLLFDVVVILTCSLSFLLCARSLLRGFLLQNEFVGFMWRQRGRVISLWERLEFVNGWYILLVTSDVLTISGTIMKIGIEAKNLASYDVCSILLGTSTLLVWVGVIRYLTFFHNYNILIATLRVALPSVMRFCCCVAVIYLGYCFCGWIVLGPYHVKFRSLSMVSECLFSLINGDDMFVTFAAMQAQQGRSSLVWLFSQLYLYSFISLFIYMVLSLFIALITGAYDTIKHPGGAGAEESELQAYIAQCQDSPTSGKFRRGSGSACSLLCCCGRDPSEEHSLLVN
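TRPML1-DL cells, Tet-induced overnight (~16 h, 37 °C) at 1,500 cells/well, were loaded with Ca8 no-wash dye plus quencher for 45-90 min at room temperature. Compounds were pinned during FDSS kinetic reading; agonist 54-4 at EC80 (4 uM final) then added.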
gsp antag = qHTS for Antagonists of gsp, the Etiologic Mutation Responsible for Fibrous Dysplasia/McCune-Albright Syndrome: qHTS; Potency, µM (doses to about 76.9 µM), for the others: at the highest dose activity change, negative = inhibition, usual class: inhibitors; 340,000 compounds, 0.4% hits; gsp-mutant cells, cAMP HTRF, 30 min; control for the full effect not named in the record; active = falling curve of any shape with a large fitted effect; inconclusive = falling curve, mostly with a smaller effect; inactive = flat or rising curve; cell line not stated here;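 further: intracellular cAMP measured with PDE inhibitor Ro 20-1724 present during compound exposure; potency means the concentration at half of the fitted maximal effect; on the % scale 0 is the no-effect control and ±100 the full control effect; nearly all actives have a fitted effect of over 65% in size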
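HTRF cAMP measurement after 30 min RT detection following 30 min, 37C compound treatment alongside […] (added as 300 uM solution) in G418-selected cells seeded at 2000/well and grown 16–24 h.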
Active calls of the source: *; ? = inconclusive; / = no result given; & = joins results of further samples; [ ] = remark or other dose. No enrichment for hits. Share with any hit: about 4.9%.

SMILES | gsp ag | Sfp inh | Menin MLL FP FL | ClpP mod | TRPV1 PAM | TRPML1 inh | gsp antag
COc1ccccc1N(C)S(=O)(=O)c1ccc(C)c(C(=O)NC(C)c2ccccn2)c1 (stereo not drawn) | -19% | / | / | -2.1% | -5 | -7 | -5%
CNS(=O)(=O)c1cccc(C(=O)NCC(c2ccco2)N(C)C)c1 (stereo not drawn) | 22%[15.4 µM] | -12% | 0.8 | -1.6% | -5 | 17 | -1%
c1coc(-c2nnc3sc(Cc4cccs4)nn23)c1 | -9% | -4% | 3.7 | -2.1% | 5 | 34 | 11%
CC(C)n1nnnc1SCC(=O)N1N=C(c2cccs2)CC1c1cccs1 (stereo not drawn) | -1% | / | / | -11% | -3 | 7 | -10%
CC(C)[C@H](NC(=O)N1CCn2c1nc1ccccc12)C(=O)N1CCCCC1 | 7% | 7% | / | -1.8% | -14 | -2 | 10%
C=C(C)C1Cc2c(C)nn(-c3cccc4cccnc34)c2C1 (stereo not drawn) | ? | -12% | 1.9 | -3.9% | -37 | / | 0%
O=S1(=O)Cc2cc3ccccc3cc2C1 | 18%[15.4 µM] | 7% | 6.6 | / | -1 | -18 | 1%
Cc1cc(C)[n+](-c2ccc(F)cc2)c2[nH]c(=O)[nH]c(=O)c12 | 2%[15.4 µM] | 13% | 1.5 | -8.6% | 2 | -3 | 5%
CC(C)Cc1cc(C(=O)N2N=C(C(F)F)CC2(O)C(F)F)c2ccccc2n1 (stereo not drawn) | 26% | 3% | 1.8 | 0.0% | 12 | -6 | -12%
O=C(C1CCCO1)N1CCN(S(=O)(=O)c2cc(F)ccc2F)CC1 (stereo not drawn) | -36%[inhibitor] | 18% | / | 0.9% | 15 | -3 | 16%
O=C(CCCCCCCC(=O)N1CCCCCC1)N1CCCCCC1 | ? | / | / | -0.6% | / | 7 | -2%
NC(=O)[C@@H]1CCCNc2c(I)cc([N+](=O)[O-])cc2C(=O)N[C@@H](Cc2ccccc2)C(=O)N[C@@H](Cc2cnc[nH]2)C(=O)N1 | -31%[inhibitor] | -5% | 4.6 | 3.0% | 15 | 31 | 7%
COc1ccc(NC(C)=O)cc1NC(=O)CSc1nnc(-c2ccccc2)n1N | 10%[15.4 µM] | 14% | 0.9 | 0.4% | 26 | 6 | 2%
COCc1cc(C)nc2sc(C(=O)Nc3ccccc3Br)c(N)c12 | ? | -12% | 0.8 | / | 0 | 13 | -32%
O=C(O)c1c(-c2ccccc2)nnc2ccccc12 | 7% | 18% | 5.3 | -1.0% | 13 | 1 | 13%
COc1ccc(NC(=O)C2CC(c3ccccc3Cl)=NO2)cc1 (stereo not drawn) | -7%[15.4 µM] | 6% | 5.6 | -0.2% | -5 | 12 | -6%
CCCc1cc(=O)n2[nH]c(NCc3ccccc3Cl)nc2n1 | -3% | 18% | -2.7 | -5.1% | 12 | 22 | -4%
N=C1C(c2ccccc2)=C(O)CN1c1cccc(O)c1 | 7%[15.4 µM] | 19% | 3.1 | / | 2 | 2 | -2%
O=C(c1cc(-c2ccccc2)nn1CC1CC(c2cccnc2)=NO1)N1CCOCC1 (stereo not drawn) | / | / | / | 0.8% | / | -15 | 8%
COc1ccc(C2(CNC(=O)c3ccco3)CCOCC2)cc1 | -23% | 10% | 1.3 | 1.3% | 9 | 12 | 5%
Cc1ccc(NC(=O)COC(=O)c2cccnc2Cl)cc1S(=O)(=O)N1CCOCC1 | -28% | / | / | -1.4% | / | -6 | -11%
CCOC(=O)c1c(C)nn(-c2ccc(NC(=O)/C=C/C(=O)O)cc2)c1C | -20% | -7% | 3.8 | / | -2 | -15 | 6%
O=C1CN(C(=O)N[C@@H](Cc2ccccc2)C(=O)N[C@H](Cc2ccccc2)C(=O)O)c2ccccc2N1 | / | 24% | -3.0 | -0.3% | 17 | / | 10%
COc1ccc(/C=C/C(=O)Nc2cccc(F)c2)cc1S(=O)(=O)N1CCOCC1 | ? | 7% | -2.3 | / | -13 | -4 | -22%
COc1cc(/C=C/C(=O)OCC(=O)NC2CCS(=O)(=O)C2)ccc1OC(F)F (stereo not drawn) | 17% | / | / | 4.4% | 2 | 6 | 5%
COC(=O)c1cc(-c2cccs2)nn1-c1ccccc1 | ? | 12% | 2.8 | / | -13 | 21 | -18%
CCc1ccc(CNC(=O)Cc2ccc(NC(=O)C3=C(C)OCCS3)cc2)cc1 | -7%[15.4 µM] | 4% | 0.1 | / | -3 | 24 | 14%
O=C(NCCNC(=O)c1ccccn1)c1cccc(F)c1 | 20% | 15% | 2.6 | / | 0 | 14 | 2%
CC(C)(C)n1ncc2c(=O)n(CC(=O)NC3CCCCC3)cnc21 | -13% | 6% | -8.1 | -2.4% | 3 | 19 | 13%
CCNc1nc(SCCOc2ccc(Br)cc2)nc(N(C)C)n1 | -7% | 9% | 0.5 | 1.2% | 10 | 18 | 68%[activator]
CN(C1CCCCC1)S(=O)(=O)c1ccc(Cl)c(C(=O)O)c1 | 13% | 18% | -4.6 | 0.9% | 14 | 3 | 4%
CC(C)C(=O)NC(NCC1CCCO1)C(Cl)(Cl)Cl (stereo not drawn) | ? | 19% | -0.5 | -11% | 6 | 0 | 5%
COC(=O)CCc1sc(NC2CCCCC2)nc1-c1ccc(OC)cc1 | -4% | -62% | 21 | -1.6% | -19 | 32 | -17%
CCC1CCCCN1C(=O)/C=C/c1ccc2c(c1)OCO2 (stereo not drawn) | ? | 11% | 0.8 | -24% | -39 | -6 | 5%
CCN1CCN(C(=O)c2cc3c(OC)c(OC)c(OC)cc3[nH]2)CC1 | -27% | 1% | -1.5 | -14% | -12 | -8 | -1%
O=C(COC(=O)c1cccnc1Cl)Nc1ccccc1OC(F)F | -3% | 14% | -0.8 | / | 2 | -5 | -11%
S=C(NCc1ccc(Cl)cc1)N1CCN(c2ccccn2)CC1 | 6%[15.4 µM] | 20% | 3.1 | / | -2 | 0 | /
Cc1cc(OCC(=O)OCC(=O)N2CC(C)CC(C)C2)ccc1Cl (stereo not drawn) | -5% | / | / | 1.0% | 1 | 13 | 8%
Cc1c(C(=O)OCc2ccc(F)cc2)sc2nc3n(c(=O)c12)CCC3 | 0%[15.4 µM] | / | / | / | -9 | 2 | -6%
Cc1ccc2ccccc2c1NC(=O)Cn1nnc(-c2cccnc2)n1 | -1%[15.4 µM] | 2% | 4.1 | / | -1 | -23 | 5%
Cc1cc(NC(=O)CCCS(=O)(=O)c2nc(-c3cccs3)cc(C(F)(F)F)n2)no1 | ? | -20% | 0.5 | ? | 10 | -2 | 29%
CC(=O)c1sc2ccccc2c1OC(=O)c1ccco1 | 4% | -5% | 0.8 | -13% | 13 | 3 | -20%
Nc1cc(C(=O)O)ccc1Sc1ccccc1C(=O)O | 1% | 16µM* | -1.5 | -9.2% | 1 | -12 | -2%
COc1ccc(-c2nc(CS(=O)CC(=O)NCc3ccco3)c(C)o2)cc1OC (stereo not drawn) | -15% | 8% | -1.3 | 4.5% | / | 12 | -10%
Cc1ccc(-c2nnc(Nc3ccc(CC(N)=O)cc3)c3ccccc23)cc1S(=O)(=O)NCCO | 5% | 21% | -0.2 | -1.4% | 2 | 19 | 0%

3 entries out of the list, arranged by SMILES length, low to high.
SMILES | gsp ag | Sfp inh | Menin MLL FP FL | ClpP mod | TRPV1 PAM | TRPML1 inh | gsp antag
CC(C)C(=O)NC(NCC1CCCO1)C(Cl)(Cl)Cl (stereo not drawn) | ? | 19% | -0.5 | -11% | 6 | 0 | 5%
S=C(NCc1ccc(Cl)cc1)N1CCN(c2ccccn2)CC1 | 6%[15.4 µM] | 20% | 3.1 | / | -2 | 0 | /
Cc1c(C(=O)OCc2ccc(F)cc2)sc2nc3n(c(=O)c12)CCC3 | 0%[15.4 µM] | / | / | / | -9 | 2 | -6%

(list continues)
SMILES | gsp ag | Sfp inh | Menin MLL FP FL | ClpP mod | TRPV1 PAM | TRPML1 inh | gsp antag
COC(=O)CNc1nc(-c2cccnc2)nc2ccccc12 | 6% | 20% | 4.1 | -4.4% | -21 | 12 | -3%
NCCS(=O)(=O)O | / | 1%&-3% | 1.5&2.6&26 | -1.5% | / | 0 | 16%
CC(=O)C1C(c2ccc(F)cc2)NC(=O)NC1(O)C(F)(F)F (stereo not drawn) | -2% | 23% | 1.1 | 1.4% | 3 | 3 | 4%
COCCOc1ccc(C(F)(F)F)cc1NC(=O)c1ccccc1F | -41%[inhibitor] | 8% | / | 25µM* | -17 | 20 | 5%
Cc1ccn2cc(CCNC(=O)Cc3cccs3)nc2c1 | 0% | 10% | -0.1 | 4.0% | -2 | 25 | -1%
Cn1c(N2CCOCC2)nc2c1c(=O)n(Cc1ccc(Cl)cc1)c(=O)n2C | -63%[inhibitor] | / | / | 0.7% | / | -8 | 7%
O=C(c1ccc(NS(=O)(=O)c2cccc(F)c2)cc1)N1CCCC1 | 13%[15.4 µM] | 16% | / | 0.6% | 11 | 19 | -14%
CCN(CC)C(=O)COc1ccc2c(-c3ccccc3)cc(=O)oc2c1 | -40%[inhibitor] | -7% | 3.4 | / | -9 | 0 | -12%
C[C@H](CO)N1C[C@H](C)[C@@H](CN(C)C(=O)Nc2ccc(C(F)(F)F)cc2)Oc2ccc(NC(=O)Nc3ccc(C(F)(F)F)cc3)cc2C1=O | -30% | / | / | -2.8% | / | 21 | 3%
O=S(=O)(Nc1ccc(N2CCCCC2)cc1)c1ccc(F)c(F)c1 | 4% | 11% | 6.8 | 1.5% | -26 | 4 | 3%
Cc1cc(OC(C(=O)O)c2ccccc2)c2c(C)c(Cc3ccccc3)c(=O)oc2c1 (stereo not drawn) | ? | -13% | -1.9 | / | 19 | 8 | 0%
